CBX7 inh – blocks human CBX7 binding to H3K27me3 peptide | 66,000 compounds, 1.1% hits | O95931 | AlphaScreen His6-CBX7 / biotin-H3K27me3 peptide binding; hits give low values | normalised signal (fraction of DMSO) (test concentration not listed); in the data active = normalised signal below about 0.5;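 note: 100 nL library stock added to about 20 µL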
Target sequence (O95931 whole entry, looked up): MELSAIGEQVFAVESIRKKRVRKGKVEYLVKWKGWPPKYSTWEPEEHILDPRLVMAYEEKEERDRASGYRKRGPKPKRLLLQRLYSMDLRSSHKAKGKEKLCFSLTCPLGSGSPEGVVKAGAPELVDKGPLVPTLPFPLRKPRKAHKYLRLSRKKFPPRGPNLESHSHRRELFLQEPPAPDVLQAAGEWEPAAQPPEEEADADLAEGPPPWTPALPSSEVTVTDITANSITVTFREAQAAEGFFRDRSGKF
CBX7 inh z-score – second read-out of CBX7 inh, no call of its own (marks repeat the call); z-score; measured here: z-score of CBX7 signal; some inactives read as strong as hits; reference of the scale not given here;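 same signal on another scale; lower means less binding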
* marks the source's active call; other numbers are inactive results; & = joins results of further samples. Not all compounds are listed; rates above refer to the full screens.

no.	canonical_smiles	CBX7 inh	CBX7 inh z-score
1	CC(C)(C)OC(=O)N1CCC(c2c(C(=O)NCCc3ccccc3)cnn2-c2ccccc2)CC1	0.98	-0.8
2	O=C(c1cnn(-c2ccccc2)c1-n1cccc1)N1CCCC(C(=O)N2CCCCCC2)C1 (stereo not given)	1.3	2.1
3	Cc1n[nH]c(C)c1S(=O)(=O)N1CCCC(C(=O)NCC2COc3ccccc3O2)C1 (stereo not given)	1	0.22
4	O=C(Nc1ccc(-c2nc3ccccc3o2)c(O)c1)c1cccc2ccccc12	0.97	-0.6
5	Cc1cc(NC(=O)CSc2nnc(COc3ccccc3)o2)no1	1	0.11
6	O=C(CCn1nc(-c2ccccc2)ccc1=O)NCCc1ccc(Cl)cc1	1	0.021
7	COC(CNC(=O)CSCc1nc(-c2ccc(Cl)cc2)oc1C)OC	1.2	2.4
8	Cc1cccc(-c2nc(Nc3ccc(C)cc3Br)c3ccccc3n2)c1	1.3	3.4
9	COc1ccc(-c2nc3cc(C)ccc3o2)cc1NC(=O)c1ccc(Cl)cc1Cl	0.97	-0.99
10	COc1ccc(-n2nc(C(=O)Nc3cccc(NC(C)=O)c3)c3ccccc3c2=O)c(OC)c1	0.93	-1.8
11	CCC(C)NC(=O)c1ccc2c(c1)N(Cc1ccccc1F)C(=O)CS2 (stereo not given)	1.1	2.1
12	CCOc1ccc(NC(=O)CCc2c(C)nc3nc(-c4cc(OC)cc(OC)c4)nn3c2C)cc1	0.94	-1.3
13	COc1ccc(CCNC(=O)C2CC(=O)N(CCc3ccc(C)cc3)C2)cc1OC (stereo not given)	1	1
14	Cc1nc2c(C(=O)O)cnn2c(C)c1Cc1cccc(Cl)c1	1.1	2
15	Cc1ccc(-c2nc(CSCC(=O)N3CCCC3)c(C)o2)cc1	0.94	-1.2
16	Cc1cc(C)cc(OCC(=O)Nc2cc(-c3nc4ncccc4o3)ccc2C)c1	1.1	2.1
17	Cc1cc(N2CCCCC2)nc2ccc(NC(=O)COc3ccc(Cl)cc3)cc12	1	1.2
18	CNC(=O)CCn1nc(-c2ccc(Cl)cc2)c2ccccc2c1=O	0.99	-0.39
19	O=C(CCc1nc(-c2ccccc2F)no1)NCCCN1CCCC1	1.1	2.2
20	CCC12CCC(CCc3ccc(C(C)=O)cc3)(CC1)CC2	1.3	3.6
21	Cc1ccc2c(c1)NCC(C(=O)NCc1cccnc1)O2 (stereo not given)	1.5	1
22	Cc1c(NC(=O)COc2ccc(Cl)cc2Cl)cccc1-c1nc2ncccc2o1	1.1	1.7
23	CC1CCCC(NC(=O)c2cc3c(s2)-c2ccccc2OC3)C1C (stereo not given)	1.5	13
24	O=C(Nc1ccc(Cl)cc1)c1cccnc1Nc1cccc(C(F)(F)F)c1	0.99	-0.029
25	COc1ccc(C(=O)NC(C)c2nc3ccccc3n2C)cc1OC (stereo not given)	0.81	-2.2
26	COc1ccc(-c2c(C)nn3c(N4CCC(C(=O)Nc5ccccn5)CC4)cc(C)nc23)cc1OC	0.87	-6
27	CCCCCc1ccc(-c2ccc(-c3ccc(O)cc3)nc2)cc1	1.1	0.17
28	Cc1cc(Nc2cc(C(=O)O)ccc2C)n2ncnc2n1	1	0.83
29	COC(=O)CNc1c(-c2ccccn2)nc2cnccn12	0.98	-0.15
30	CCOc1ccc(CCNC(=O)CCN2N=C(c3ccccc3)CCC2=O)cc1OCC	0.96	-0.81
31	COc1cccc(-n2c(=O)c3sccc3n(CC(=O)NCCc3ccc(S(N)(=O)=O)cc3)c2=O)c1	1	0.69
32	COc1ccc(CCN2C(=O)CC(NCc3ccc4c(c3)OCO4)C2=O)cc1OC (stereo not given)	1.1	1.4
33	CCOC(=O)CNC(=O)c1sc2ncn(CC(=O)Nc3ccccc3OC)c(=O)c2c1C	1.2	1.5
34	CCOc1ccccc1N1CCN(C2CC(=O)N(c3ccccc3)C2=O)CC1 (stereo not given)	1	1
35	CCOC(=O)c1ccc(NC(=O)c2c(-c3c(F)cccc3Cl)noc2C)cc1	1	0.29
36	COc1ccc(C2=NOC(C(=O)NCc3ccccn3)C2)cc1 (stereo not given)	0.93	-0.96
37	Cc1cccc(N2CCN(C(=O)Cc3ccc(NC4=NC5CS(=O)(=O)CC5S4)cc3)CC2)c1C (stereo not given)	0.98	-0.52
38	CCOc1ccc(-c2cc(C(=O)N3CCN(c4ccccn4)CC3)c3ccccc3n2)cc1	0.92	-1.5
39	O=C(Cn1c(NCCO)nc2ccccc21)c1ccc(Cl)c(Cl)c1	0.93	-1.5
40	CCn1c(C(=O)N2CCC(C(=O)N3CCC(Cc4ccccc4)CC3)CC2)cc2sccc21	0.51	-2.2
41	CCc1ccc(NC(=O)c2noc3c2CCc2cc(OC)ccc2-3)cc1	1	0.2
42	O=C(c1cnc2ccccc2n1)N1CCn2c(nc3ccccc32)C1	0.96	-1.6
43	CCCCCc1nnc(NC(=O)Cc2ccccc2)s1	0.85	-0.62
44	CCN1CCCC1CNc1nnc(Cc2ccncc2)c2ccccc12 (stereo not given)	1	0.56
45	Cc1c(C(=O)N2CCCCC2)oc2ccc(S(=O)(=O)N3CCCC3)cc12	1.1	1.2
46	c1nc(N2CCCC2)c2c3c(sc2n1)CCCC3	1	2.1
47	Cc1ccccc1-c1nc(CN2CCC(C(=O)NCc3cccnc3)CC2)c(C)o1	1.1	0.12
48	Cc1nc(Nc2cccc(C(F)(F)F)c2)c2c(C)c(C)sc2n1	0.45*	-0.72*
49	Cc1ccc(-c2cc(C(F)(F)F)n3ncc(C(=O)NC(C)C)c3n2)cc1	1.1	1.5
50	Cc1noc(/C=C/c2cccs2)c1S(=O)(=O)N1CCC(C(=O)Nc2nccs2)CC1	0.89	-1.7

Further entries:
no.	canonical_smiles	CBX7 inh	CBX7 inh z-score
51	COc1ccccc1CNc1nc(-c2ccccc2F)nc2ccccc12	0.32*	-0.89*
52	COc1ccc(Cl)cc1Nc1nc(-c2ccccc2F)nc2ccccc12	0.97	-0.041
53	COc1ccc(Cl)cc1NC(=O)c1cc(-c2ccc(OC)c(OC)c2)on1	1	0.2
54	COc1ccc2c(c1)c(=O)c(S(=O)(=O)c1ccc(C)cc1)cn2CC(=O)Nc1ccccc1C	0.91	-1.2
55	Cc1ccc2nc(SCC(=O)Nc3ccc(OC(F)(F)F)cc3)[nH]c2c1	1	0.71
56	Cc1c(C(=O)NCc2ccccc2)oc2c1C(=O)CCC2	0.93	-1.8
57	COC(=O)c1ccccc1NC(=O)COc1ccc(OC)cc1	1	1.3
58	CCC(=O)N1CCc2cc(S(=O)(=O)NCCCN3CCOCC3)ccc21	0.96	-0.86
59	CCC1Oc2ccc(Cl)cc2N(CC(=O)NC2CCCCCC2)C1=O (stereo not given)	1.6	1.2
60	Cc1ccc(OCC(=O)Nc2ccc(Cl)c(-c3nc4ccccc4o3)c2)c(C)c1	0.94	-0.54
61	Cc1oc(-c2ccccc2F)nc1CSCC(=O)NC(C)c1ccc2c(c1)OCCO2 (stereo not given)	0.89	-2.1
62	Cc1ccc2nc(NC(=O)CSc3nnc(CNC(=O)c4c(F)cccc4Cl)o3)sc2c1	0.9	-1.7
63	COc1ccc(Cc2noc(-c3cc(-c4ccc(F)cc4)nc4ccccc34)n2)cc1	1.3	0.34
64	COc1ccccc1-c1cc(=O)n(CC(=O)NCc2cccnc2)c2c1CCCC2	0.89	-2.8
65	COc1ccc(CN2CC(C(=O)NCc3ccc4c(c3)OCO4)CC2=O)cc1 (stereo not given)	1	1.3
66	CC(C)CCNC(=O)C1CCN(C(=O)c2sccc2-n2cccc2)CC1	1	1
67	COc1ccc(NC(=O)NCCCN2CCN(C3CCCCC3)CC2)cc1	1.4	3.8
68	CC(C)c1ccc(C(=O)CC2(O)C(=O)N(Cc3ccccc3)c3ccc(Br)cc32)cc1 (stereo not given)	0.88	-1.2
69	COc1ccc(C(=O)N2CC(=O)Nc3ccc(Cl)cc3C2c2ccc(F)cc2)cc1 (stereo not given)	0.94	-0.56
70	COc1ccc(Nc2ncc(C(=O)N3CCN(c4cccc(Cl)c4)CC3)c3ccccc23)cc1	0.87	-2.2
71	COc1cc2ccccc2cc1C(=O)Nc1ccc2oc(-c3ccc(Cl)cc3)nc2c1	1.1	1.1
72	O=C(c1cc(-c2ccccn2)nc2ccc(S(=O)(=O)N3CCOCC3)cc12)N1CCOCC1	1.2	1.5
73	CCOc1ccc(-c2cc(C(=O)NCc3cccc(OC)c3)c3ccccc3n2)cc1	1	1.3
74	CCOCCCNC(=O)C1CCN(C(=O)c2sccc2-n2cccc2)CC1	1	0.19
75	O=C(CN1CCN(Cc2ccc(F)cc2)C1=O)NCc1cccs1	0.82	-2.6
76	CCCC1=Nc2cc(C(=O)NC(C)CC)ccc2Sc2ccccc21 (stereo not given)	1.1	1.1
77	O=c1cc(Cc2nnc(SCc3cccc(F)c3)n2-c2ccc(F)cc2)[nH]c(=O)[nH]1	0.98	-0.53
78	O=C(c1cnn(-c2ccccc2)c1-n1cccc1)N1CCOCC1	1	1.8
79	CCCc1ccc(-c2ccc(C(=O)Nc3ccc(C)cc3)cc2)nc1	1	0.89
80	Cc1nc2cc(C(=O)O)ccc2n1-c1ccc(Br)cc1	0.95	-1.5

Of the compounds above, these contain two or more sulfur atoms:
no.	canonical_smiles	CBX7 inh	CBX7 inh z-score
31	COc1cccc(-n2c(=O)c3sccc3n(CC(=O)NCCc3ccc(S(N)(=O)=O)cc3)c2=O)c1	1	0.69
37	Cc1cccc(N2CCN(C(=O)Cc3ccc(NC4=NC5CS(=O)(=O)CC5S4)cc3)CC2)c1C (stereo not given)	0.98	-0.52
50	Cc1noc(/C=C/c2cccs2)c1S(=O)(=O)N1CCC(C(=O)Nc2nccs2)CC1	0.89	-1.7
62	Cc1ccc2nc(NC(=O)CSc3nnc(CNC(=O)c4c(F)cccc4Cl)o3)sc2c1	0.9	-1.7

Sorted by the number under CBX7 inh z-score (descending): three from the list above
nr	smiles	CBX7 inh z-score
73	CCOc1ccc(-c2cc(C(=O)NCc3cccc(OC)c3)c3ccccc3n2)cc1	1.3
71	COc1cc2ccccc2cc1C(=O)Nc1ccc2oc(-c3ccc(Cl)cc3)nc2c1	1.1
79	CCCc1ccc(-c2ccc(C(=O)Nc3ccc(C)cc3)cc2)nc1	0.89

Rewritten with two lines to a compound: 2 of the compounds above.
Value order: CBX7 inh	CBX7 inh z-score
72) O=C(c1cc(-c2ccccn2)nc2ccc(S(=O)(=O)N3CCOCC3)cc12)N1CCOCC1
 : 1.2	1.5
73) CCOc1ccc(-c2cc(C(=O)NCc3cccc(OC)c3)c3ccccc3n2)cc1
 : 1	1.3

Next part
no.	canonical_smiles	CBX7 inh	CBX7 inh z-score
81	Cc1ccc(C)c(NC(=O)C(NS(=O)(=O)c2ccc3c(c2)CCC(=O)N3)c2ccccc2)c1 (stereo not given)	0.98	-0.63
82	CCOC(=O)Cn1c(=O)n(CCc2ccc(OC)c(OC)c2)c(=O)c2cccnc21	1.1	1.5
83	COc1cccc(-n2nc(C(=O)N3CCN(c4ccc(F)cc4)CC3)c3ccccc3c2=O)c1	0.98	-0.69
84	CCc1cccc(C)c1NC(=O)c1c(-c2ccccc2Cl)noc1C	1	0.031
85	COc1ccc(-c2nc(CS(=O)(=O)CC(=O)NC3CCCC(C)C3C)c(C)o2)cc1 (stereo not given)	1	0.78
86	Cc1ccc(S(=O)(=O)Nc2nc3ccccc3nc2Nc2cccc(C)c2C)cc1	1	1.1
87	Cc1ccc(C(=O)c2oc3ccccc3c2NC(=O)COc2ccccc2C)cc1	1.1	0.28
88	Cc1ccc(C)c(N2CCN(C(=O)CCc3nc4ccccc4[nH]3)CC2)c1	0.97	-0.62
89	C=C(C)Cn1c(C2CC(=O)N(c3ccc(OCC)cc3)C2)nc2ccccc21 (stereo not given)	0.88	-1.3
90	CC(C)CN(CCCNC(=O)Cn1nc(-c2ccccc2)ccc1=O)CC(C)C	1	0.6
91	CC1CCN(C(=O)C2CCCN(C(=O)c3cnn(-c4ccccc4)c3-n3cccc3)C2)CC1 (stereo not given)	0.88	-0.92
92	O=C(NCc1cccnc1)c1cc(=O)[nH]c2ccc(S(=O)(=O)N3CCOCC3)cc12	0.99	-0.083
93	O=C(CCCCCn1c(=O)c2sccc2n(Cc2cccc(F)c2)c1=O)NCc1ccccc1	0.97	-0.67
94	CC1CCCCN1CCCNC(=O)C1CCC(=O)N1C1CCCCC1 (stereo not given)	1	2
95	O=C(c1cnn2c(C(F)(F)F)cc(-c3ccc4c(c3)OCO4)nc12)N1CCN(Cc2ccccc2)CC1	1	0.22
96	CCOc1ccc(NS(=O)(=O)c2ccc3[nH]cc(C(=O)NCCC(C)C)c(=O)c3c2)cc1	0.88	-1.6
97	Cc1ccc(Nc2nnc(-c3ccc(C)c(S(=O)(=O)NCC4CCCO4)c3)c3ccccc23)cc1 (stereo not given)	0.9	-1.1
98	O=c1c2cccnc2n(Cc2cccc(F)c2)c(=O)n1Cc1ccccc1Cl	1	0.29
99	CCOCCn1c(CN2CCOCC2)nc2c1c(=O)[nH]c(=O)n2C	1	0.35
100	COCCN(CCOC)S(=O)(=O)c1ccc(C(=O)Nc2nnc(C)o2)cc1	0.0057*	-1.3*
101	COc1cccc(-c2nc(CSCC(=O)NC3CC3)c(C)o2)c1	1.1	1.4
102	Cc1onc(-c2c(Cl)cccc2Cl)c1C(=O)N1CCN(c2cccc(C(F)(F)F)c2)CC1	0.85	-0.18
103	CCN(CC)S(=O)(=O)c1ccc2oc(C(=O)NCc3ccccc3OC)c(C)c2c1	0.83	-1.7
104	COc1ccc(N(C)C(=O)c2cc3c(s2)-c2ccccc2OC3)c(OC)c1	0.94	-2.7
105	O=C1CC(N2CCN(c3ccccn3)CC2)C(=O)N1c1cccc2ccccc12 (stereo not given)	0.99&1	-0.19&0.2
106	COc1ccccc1CNc1ccc(C(=O)O)cc1S(=O)(=O)Nc1cccc(C(F)(F)F)c1	0.91	-0.93

In the list so far, these have an aryl thioether with sulfur outside any ring:
no.	canonical_smiles	CBX7 inh	CBX7 inh z-score
5	Cc1cc(NC(=O)CSc2nnc(COc3ccccc3)o2)no1	1	0.11
55	Cc1ccc2nc(SCC(=O)Nc3ccc(OC(F)(F)F)cc3)[nH]c2c1	1	0.71
62	Cc1ccc2nc(NC(=O)CSc3nnc(CNC(=O)c4c(F)cccc4Cl)o3)sc2c1	0.9	-1.7
77	O=c1cc(Cc2nnc(SCc3cccc(F)c3)n2-c2ccc(F)cc2)[nH]c(=O)[nH]1	0.98	-0.53
